Assay outcomes (PubChem)
rRNA inh HTS: reduced GFP signal of wild-type E. coli, primary screen, bacterial rRNA inhibitor project, GFP/RFP fluorescence, OD600, single point; E. coli WT GFP vs humanized-ribosome RFP mutants, 24 h; stronger effect = lower value; DMSO median 0, no signal -100; AID 720706, 2013; 1.6% of 350,000 active; GFP signal change (wild-type ribosome), % (concentration not given with the values);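 active means significant combined selectivity score with lowered wild-type GFP, culture density cut under 30%, mutant RFP and density less affected; inactive means any of these conditions unmet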; further: one replicate is shown; some compounds called inactive have numbers as strong as hits
MLL AF4-AF9 inh: inhibitors of AF4 peptide binding to AF9, primary screen, biochemical, AlphaScreen, biotin-AF4 peptide, FLAG-AF9, single point. AID 651704, 2012. Protein AF-9 (Homo sapiens), P42568. 0.47% of 350,000 active. inhibition, % at 10 µM;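 active means every replicate reaching a set inhibition limit, whatever the replicate mean, cut at about 25% in these data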;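 further: 0% = plate neutral control median and 100% = total signal loss; the record names both 10 and 1 µM as test concentration; the first replicate is given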
Target sequence (P42568 whole entry, looked up): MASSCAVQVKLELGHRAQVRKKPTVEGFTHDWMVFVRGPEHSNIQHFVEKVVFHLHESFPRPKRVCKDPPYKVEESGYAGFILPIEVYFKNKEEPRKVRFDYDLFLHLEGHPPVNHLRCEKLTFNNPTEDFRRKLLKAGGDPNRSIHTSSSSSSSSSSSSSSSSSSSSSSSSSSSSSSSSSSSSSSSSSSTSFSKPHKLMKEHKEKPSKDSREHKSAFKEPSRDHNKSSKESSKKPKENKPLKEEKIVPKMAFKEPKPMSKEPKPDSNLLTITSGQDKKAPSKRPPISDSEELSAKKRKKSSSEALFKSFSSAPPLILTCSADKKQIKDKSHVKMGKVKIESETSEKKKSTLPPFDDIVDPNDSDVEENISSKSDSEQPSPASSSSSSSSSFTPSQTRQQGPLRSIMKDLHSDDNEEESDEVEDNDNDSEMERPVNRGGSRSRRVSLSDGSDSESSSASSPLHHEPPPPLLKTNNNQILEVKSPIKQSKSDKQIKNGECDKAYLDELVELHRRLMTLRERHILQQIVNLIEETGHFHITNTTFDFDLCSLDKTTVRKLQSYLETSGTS
rRNA inh HTS OD600: further read-out of rRNA inh HTS, marked with its call; OD600 change, %; measured here: OD600 growth;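 optical density of the mix in the first replicate; 0 = DMSO median and -100 = no signal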
rRNA inh HTS RFP: recorded beside rRNA inh HTS, whose call it bears; RFP signal change, %; measured here: RFP humanized mutant strains;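 first replicate; 0 = DMSO median and -100 = no signal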
* marks the source's active call; other numbers are inactive results; & = joins results of further samples.

The first 5 compounds, ahead of the listing:
What do the screens show for `C[C@@H]1CN([C@H](C)CO)S(=O)(=O)c2ccc(-c3ccncc3)cc2O[C@H]1CN(C)Cc1ccccn1`?
rRNA inh HTS: -3.4; MLL AF4-AF9 inh: -1.7; rRNA inh HTS OD600: -11.3; rRNA inh HTS RFP: -0.6

How did COCC(=O)N1[C@H](C(=O)NCc2ccccc2F)[C@@H](CO)[C@@H]2Cn3c(cccc3=O)[C@@H]21 do in these assays?
rRNA inh HTS: -1.3; MLL AF4-AF9 inh: -1.6; rRNA inh HTS OD600: 7.0; rRNA inh HTS RFP: -4.5

How did C[C@@H]1CN([C@@H](C)CO)C(=O)c2cc(NC(=O)NC3CCCCC3)ccc2O[C@@H](C)CCCCO[C@H]1CN(C)C do in these assays?
rRNA inh HTS: 2.6; MLL AF4-AF9 inh: 6.5; rRNA inh HTS OD600: -0.6; rRNA inh HTS RFP: -3.8

Results for NC(Cc1ccccc1)c1csc(Nc2ccc(C(F)(F)F)cn2)n1 (configuration not stated) ?
rRNA inh HTS: -32.0; MLL AF4-AF9 inh: 0.2; rRNA inh HTS OD600: -36.7; rRNA inh HTS RFP: -7.4

Results for C[C@@H]1CN([C@H](C)CO)C(=O)c2cccc(NS(=O)(=O)c3cccs3)c2O[C@@H]1CN(C)S(=O)(=O)c1ccc(F)cc1 ?
rRNA inh HTS: 2.8; MLL AF4-AF9 inh: 2.0; rRNA inh HTS OD600: 7.1; rRNA inh HTS RFP: -2.3

The listing, from the first entry:
What do the screens show for `C[C@@H]1CN([C@H](C)CO)S(=O)(=O)c2ccc(-c3ccncc3)cc2O[C@H]1CN(C)Cc1ccccn1`?
rRNA inh HTS: -3.4; MLL AF4-AF9 inh: -1.7; rRNA inh HTS OD600: -11.3; rRNA inh HTS RFP: -0.6

How did COCC(=O)N1[C@H](C(=O)NCc2ccccc2F)[C@@H](CO)[C@@H]2Cn3c(cccc3=O)[C@@H]21 do in these assays?
rRNA inh HTS: -1.3; MLL AF4-AF9 inh: -1.6; rRNA inh HTS OD600: 7.0; rRNA inh HTS RFP: -4.5

How did C[C@@H]1CN([C@@H](C)CO)C(=O)c2cc(NC(=O)NC3CCCCC3)ccc2O[C@@H](C)CCCCO[C@H]1CN(C)C do in these assays?
rRNA inh HTS: 2.6; MLL AF4-AF9 inh: 6.5; rRNA inh HTS OD600: -0.6; rRNA inh HTS RFP: -3.8

Results for NC(Cc1ccccc1)c1csc(Nc2ccc(C(F)(F)F)cn2)n1 (configuration not stated) ?
rRNA inh HTS: -32.0; MLL AF4-AF9 inh: 0.2; rRNA inh HTS OD600: -36.7; rRNA inh HTS RFP: -7.4

Results for C[C@@H]1CN([C@H](C)CO)C(=O)c2cccc(NS(=O)(=O)c3cccs3)c2O[C@@H]1CN(C)S(=O)(=O)c1ccc(F)cc1 ?
rRNA inh HTS: 2.8; MLL AF4-AF9 inh: 2.0; rRNA inh HTS OD600: 7.1; rRNA inh HTS RFP: -2.3

Results for Cc1cccc(S(=O)(=O)N[C@@H]2CC[C@@H](CCNC(=O)CCN3CCCCC3)O[C@@H]2CO)c1 ?
rRNA inh HTS: 0.5; MLL AF4-AF9 inh: -1.9; rRNA inh HTS OD600: 1.4; rRNA inh HTS RFP: -1.1

How did Cc1noc(C)c1NC(=O)Nc1ccc2c(c1)C(=O)N([C@H](C)CO)C[C@H](C)[C@@H](CN(C)S(C)(=O)=O)OCCCC[C@@H](C)O2 do in these assays?
rRNA inh HTS: 3.0; MLL AF4-AF9 inh: -0.5; rRNA inh HTS OD600: 13.2; rRNA inh HTS RFP: -1.8

What do the screens show for `COc1ccccc1NC(=O)N[C@@H]1CC[C@H](CC(=O)N[C@H](C)c2ccccc2)O[C@@H]1CO`?
rRNA inh HTS: 0.9; MLL AF4-AF9 inh: -0.8; rRNA inh HTS OD600: 4.5; rRNA inh HTS RFP: 0.9

How did O=C(c1cccc(F)c1)N1CC2(C1)[C@@H](c1ccccc1)[C@@H](CO)N2C(=O)C1CCOCC1 do in these assays?
rRNA inh HTS: -0.5; MLL AF4-AF9 inh: -8.9; rRNA inh HTS OD600: -5.1; rRNA inh HTS RFP: -2.6

How did CO[C@H]1CN(C)C(=O)c2cc(NC(=O)c3ccccc3F)ccc2OC[C@H](C)N(C)C[C@H]1C do in these assays?
rRNA inh HTS: -2.6; MLL AF4-AF9 inh: -0.9; rRNA inh HTS OD600: -1.5; rRNA inh HTS RFP: -2.4

How did COc1cccc(NC(=O)N[C@@H]2C=C[C@H](CC(=O)NCc3ccccn3)O[C@@H]2CO)c1 do in these assays?
rRNA inh HTS: 0.7; MLL AF4-AF9 inh: 0.2; rRNA inh HTS OD600: 2.6; rRNA inh HTS RFP: 1.7

Results for C[C@@H]1CN([C@H](C)CO)C(=O)c2cc(NS(=O)(=O)c3cccs3)ccc2O[C@@H](C)CCCCO[C@H]1CN(C)S(=O)(=O)c1ccc(F)cc1 ?
rRNA inh HTS: -3.9; MLL AF4-AF9 inh: -4.4; rRNA inh HTS OD600: -2.8; rRNA inh HTS RFP: 1.0

How did COc1ccc(S(=O)(=O)Nc2ccc3c(c2)C(=O)N([C@H](C)CO)C[C@@H](C)[C@@H](CN(C)C(=O)CCC(F)(F)F)OCCCC[C@@H](C)O3)cc1 do in these assays?
rRNA inh HTS: -1.3; MLL AF4-AF9 inh: -0.5; rRNA inh HTS OD600: -7.1; rRNA inh HTS RFP: 7.7

How did C[C@@H]1CN([C@H](C)CO)C(=O)c2cc(NC(=O)CCC(F)(F)F)ccc2O[C@@H]1CN(C)C(=O)Nc1ccc(C(F)(F)F)cc1 do in these assays?
rRNA inh HTS: -11.5; MLL AF4-AF9 inh: 0.3; rRNA inh HTS OD600: -14.3; rRNA inh HTS RFP: -1.4

How did CN1[C@H](C(=O)NC2CCCCC2)[C@@H](CO)[C@@H]2Cn3c(ccc(-c4cccc(F)c4)c3=O)[C@@H]21 do in these assays?
rRNA inh HTS: 5.7; MLL AF4-AF9 inh: 0.3; rRNA inh HTS OD600: 0.8; rRNA inh HTS RFP: 5.6

How did O=C(Cc1ccccn1)NCC[C@@H]1CC[C@H](NS(=O)(=O)c2ccccc2)[C@@H](CO)O1 do in these assays?
rRNA inh HTS: -0.9; MLL AF4-AF9 inh: 0.1; rRNA inh HTS OD600: 6.1; rRNA inh HTS RFP: -3.5

What do the screens show for `COc1ccc(-c2cc(NC=O)c3ncc(-c4cccc(C(=O)N(C)C)c4)n3c2)c(OC)c1`?
rRNA inh HTS: 3.8; MLL AF4-AF9 inh: 1.7; rRNA inh HTS OD600: -0.9; rRNA inh HTS RFP: 9.9

What do the screens show for `O=C(O)C[C@@H]1C=C[C@@H](NC(=O)c2ccccc2F)[C@H](CO)O1`?
rRNA inh HTS: 1.3; MLL AF4-AF9 inh: -2.9; rRNA inh HTS OD600: -3.0; rRNA inh HTS RFP: -2.4

What do the screens show for `Cc1ccc(S(=O)(=O)Nc2ccc3c(c2)C(=O)N([C@@H](C)CO)C[C@@H](C)[C@H](CN(C)C(=O)C2CCCCC2)OCCCC[C@@H](C)O3)cc1`?
rRNA inh HTS: -2.4; MLL AF4-AF9 inh: -0.8; rRNA inh HTS OD600: -12.3; rRNA inh HTS RFP: 0.1

How did O=C(NC1CCCC1)[C@@H]1[C@@H](CO)[C@@H]2Cn3c(cccc3=O)[C@H]1N2CC1CCCC1 do in these assays?
rRNA inh HTS: -1.8; MLL AF4-AF9 inh: 0.3; rRNA inh HTS OD600: -2.0; rRNA inh HTS RFP: 1.2

Results for CN1C(=O)c2cc(NC(=O)c3ccc(F)c(F)c3)ccc2OC[C@@H]2O[C@H](CC(=O)N[C@@H]3CCN(Cc4ccccc4)C3)CC[C@@H]21 ?
rRNA inh HTS: -2.2&-3.7; MLL AF4-AF9 inh: 8.8; rRNA inh HTS OD600: -5.6&-3.7; rRNA inh HTS RFP: 8.1&5.8

Results for COc1ccc(C(=O)Nc2nnc([C@@H]3C[C@H](O)[C@@H](CO)O3)s2)cc1 ?
rRNA inh HTS: 6.3; MLL AF4-AF9 inh: -1.4; rRNA inh HTS OD600: 16.6; rRNA inh HTS RFP: -3.7

What do the screens show for `CCOC(=O)C1(C)CCCN(C(=O)c2ccccc2C(F)(F)F)C1` (configuration not stated)?
rRNA inh HTS: -5.6; MLL AF4-AF9 inh: 0.4; rRNA inh HTS OD600: -1.9; rRNA inh HTS RFP: -0.6

What do the screens show for `C[C@@H]1CN([C@H](C)CO)C(=O)Cc2cc(NC(=O)Nc3cccc4ccccc34)ccc2O[C@H]1CN(C)Cc1ccccc1`?
rRNA inh HTS: -4.8; MLL AF4-AF9 inh: -0.1; rRNA inh HTS OD600: -5.1; rRNA inh HTS RFP: 6.3

Results for C[C@H](CO)N1C[C@H](C)[C@H](CN(C)Cc2ccncc2)Oc2c(NS(=O)(=O)c3ccc(F)cc3)cccc2C1=O ?
rRNA inh HTS: 0.6; MLL AF4-AF9 inh: -0.8; rRNA inh HTS OD600: 7.3; rRNA inh HTS RFP: 1.2

Results for O=C(Nc1ccc2c(c1)[C@@H]1C[C@H](CC(=O)N3CCCCC3)O[C@@H](CO)[C@@H]1O2)c1ccc2c(c1)OCO2 ?
rRNA inh HTS: -6.4; MLL AF4-AF9 inh: 0.7; rRNA inh HTS OD600: -14.6; rRNA inh HTS RFP: -1.0

How did COc1ccc(NC(=O)Nc2ccc3c(c2)C(=O)N([C@H](C)CO)C[C@H](C)[C@H](CN(C)Cc2ccc(Cl)c(Cl)c2)OCCCC[C@H](C)O3)cc1 do in these assays?
rRNA inh HTS: 1.2; MLL AF4-AF9 inh: 2.8; rRNA inh HTS OD600: -1.6; rRNA inh HTS RFP: 3.1

How did C[C@@H]1CN([C@@H](C)CO)C(=O)c2cc(NC(=O)Nc3ccc(F)cc3)ccc2O[C@@H](C)CCCCO[C@@H]1CN(C)S(=O)(=O)c1cccs1 do in these assays?
rRNA inh HTS: -0.9; MLL AF4-AF9 inh: -5.2; rRNA inh HTS OD600: -1.7; rRNA inh HTS RFP: -1.9

What do the screens show for `CCCCc1c(-c2ccccc2OC)ncn1CCc1ccccc1`?
rRNA inh HTS: -61.0; MLL AF4-AF9 inh: 15.2; rRNA inh HTS OD600: -79.1; rRNA inh HTS RFP: -19.2

What do the screens show for `COCC(=O)N(C[C@@H]1N[C@@H](CO)[C@H]1c1ccc(C2=CCCCC2)cc1)C(C)C`?
rRNA inh HTS: 2.9; MLL AF4-AF9 inh: 7.4; rRNA inh HTS OD600: 3.5; rRNA inh HTS RFP: -1.8

What do the screens show for `CCCC(=O)Nc1ccc2c(c1)C(=O)N(C)C[C@H](OC)[C@H](C)CN(C(=O)c1cccnc1)[C@@H](C)CO2`?
rRNA inh HTS: 0.1; MLL AF4-AF9 inh: 1.6; rRNA inh HTS OD600: 4.8; rRNA inh HTS RFP: -3.1

Results for COC(=O)[C@@H]1[C@@H](CO)[C@@H]2Cn3c(ccc(C4=CCCCC4)c3=O)[C@@H]2N1CC1CCCCC1 ?
rRNA inh HTS: -11.9; MLL AF4-AF9 inh: 4.3; rRNA inh HTS OD600: -27.9; rRNA inh HTS RFP: 8.6

What do the screens show for `CCCNC(=O)N(C)C[C@@H]1Oc2ncc(C#CCC(C)C)cc2C(=O)N([C@H](C)CO)C[C@@H]1C`?
rRNA inh HTS: -1.4; MLL AF4-AF9 inh: -2.9; rRNA inh HTS OD600: -4.7; rRNA inh HTS RFP: -2.8

Results for C[C@@H]1CCCCO[C@H](CN(C)C(=O)Nc2ccc(C(F)(F)F)cc2)[C@@H](C)CN([C@H](C)CO)C(=O)c2cc(NS(=O)(=O)c3ccc(Cl)cc3)ccc2O1 ?
rRNA inh HTS: 5.6; MLL AF4-AF9 inh: -1.4; rRNA inh HTS OD600: 8.9; rRNA inh HTS RFP: -2.2

How did CCC(=O)N(C)C[C@H]1Oc2cc(C#CCC(C)C)ccc2S(=O)(=O)N([C@H](C)CO)C[C@@H]1C do in these assays?
rRNA inh HTS: -3.0; MLL AF4-AF9 inh: 5.1; rRNA inh HTS OD600: -21.1; rRNA inh HTS RFP: 0.8

What do the screens show for `C[C@H]1CN([C@@H](C)CO)C(=O)c2cc(-c3ccncc3)cnc2O[C@H]1CN(C)S(=O)(=O)c1ccc(F)cc1`?
rRNA inh HTS: -1.6; MLL AF4-AF9 inh: -2.8; rRNA inh HTS OD600: 0.5; rRNA inh HTS RFP: 0.3

Results for CN1CCN(C(=O)C[C@@H]2CC[C@@H]3[C@H](COC[C@H](O)CN3C(=O)Cc3ccccc3)O2)CC1 ?
rRNA inh HTS: 5.5; MLL AF4-AF9 inh: 1.7; rRNA inh HTS OD600: 4.2; rRNA inh HTS RFP: -5.7

What do the screens show for `COC(=O)[C@H](Cc1ccccc1)NC(=O)CC[C@H]1O[C@@H](n2ccc(=O)[nH]c2=O)[C@H](O)[C@@H]1O`?
rRNA inh HTS: 1.2; MLL AF4-AF9 inh: -1.2; rRNA inh HTS OD600: 12.6; rRNA inh HTS RFP: -3.7

Results for CCCCCCn1c(SCC(=O)NC2CCS(=O)(=O)C2)nc2ccccc2c1=O (configuration not stated) ?
rRNA inh HTS: 6.7; MLL AF4-AF9 inh: -13.9; rRNA inh HTS OD600: 20.9; rRNA inh HTS RFP: -1.7

Results for C[C@H]1COc2cc(N3CCSCC3)ccc2S(=O)(=O)N1 ?
rRNA inh HTS: 19.6; MLL AF4-AF9 inh: -0.2; rRNA inh HTS OD600: 8.8; rRNA inh HTS RFP: -1.1

An excerpt; the hit share may differ from the screen's.
